Screening results: PubChem, Fisher Drug Discovery Resource Center
NPYLR7 agonist: mosquito NPYLR7 agonism | HEK293T NPYLR7/Galpha15, GCaMP6s calcium fluorescence | activation, % at 10 µM | 270,000 compounds, 0.15% hits; in the data active means activation above about 40%;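 further: 0% = vehicle and 100% = reference agonist at the receptor; some compounds past the cut are filed as inactive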
NPYLR7 agonist max-min: second read-out of NPYLR7 agonist, no call of its own (marks repeat the call); activation, %; measured here: Max-Min RFU normalised activation; some inactives read as strong as hits;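 span of the calcium signal over five minutes; 0% = vehicle and 100% = native peptide agonist; compound fluorescence can raise it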
An asterisk follows results filed as active. Not all compounds are listed, so the mix of outcomes need not match the whole.

SMILES	NPYLR7 agonist	NPYLR7 agonist max-min
Cc1ccc2oc(-c3cccc(NC(=O)c4ccccc4F)c3)nc2c1	-9	-13
CN(C)CCCN(C(=O)c1cccs1)c1nc2cc3c(cc2s1)OCO3	1	-1
Cc1ccc(C(N)c2ccc(F)cc2Cl)cc1 (centres undefined)	5	3
Cc1ccc(-c2ccnc(N(C)Cc3cc(C4CC4)on3)n2)c(C)n1	15	15
CC(=O)Nc1ccc(CN2CCCCC2CN2CCOCC2)cc1 (centres undefined)	11	-5
CO[C@H]1C=CO[C@@]2(C)Oc3c(C)c(O)c4c(O)c(c(C=NN5CCN(C)CC5)c(O)c4c3C2=O)NC(=O)/C(C)=C\C=C/[C@H](C)[C@H](O)[C@@H](C)[C@@H](O)[C@@H](C)[C@H](OC(C)=O)[C@@H]1C	11	-3
CC(C)(C)CC(C)(C)c1ccc(OCOCCOCCO)c(Cc2cc(C(C)(C)CC(C)(C)C)cc(Cc3cc(C(C)(C)CC(C)(C)C)ccc3OCOCCOCCO)c2OCOCCOCCO)c1	-3	-7
Cc1nc(Cl)cc(Nc2ccc(OCCO)cc2)n1	4	4
O=C(NCCF)c1cncn1-c1ccc(-c2ccc(F)c(F)c2)cc1	2	0
Clc1ccc(Nc2nc3ccccc3n3cnnc23)cc1	7	3
COc1ccc(CCNC(=O)c2c(C)c(C)c(C)n2Cc2ccc(F)cc2F)cc1OC	23	18
CC(CNc1ccccc1)NC(=O)Nc1ccc(Cl)cn1 (centres undefined)	5	2
CC(Sc1nnc(N2CCCC2)n1-c1cccc(Cl)c1)C(=O)NC1CC1 (centres undefined)	13	2
CSCc1ccc(C(=O)N2CCCC3(CC2)CNC(=O)O3)o1 (centres undefined)	-1	-5
Oc1ccc(C=NN2CCN(C3c4ccccc4-c4ccccc43)CC2)cc1	5	2

6 records picked at random from those above, as already listed:
SMILES	NPYLR7 agonist	NPYLR7 agonist max-min
CO[C@H]1C=CO[C@@]2(C)Oc3c(C)c(O)c4c(O)c(c(C=NN5CCN(C)CC5)c(O)c4c3C2=O)NC(=O)/C(C)=C\C=C/[C@H](C)[C@H](O)[C@@H](C)[C@@H](O)[C@@H](C)[C@H](OC(C)=O)[C@@H]1C	11	-3
Cc1ccc(C(N)c2ccc(F)cc2Cl)cc1 (centres undefined)	5	3
CC(Sc1nnc(N2CCCC2)n1-c1cccc(Cl)c1)C(=O)NC1CC1 (centres undefined)	13	2
COc1ccc(CCNC(=O)c2c(C)c(C)c(C)n2Cc2ccc(F)cc2F)cc1OC	23	18
CN(C)CCCN(C(=O)c1cccs1)c1nc2cc3c(cc2s1)OCO3	1	-1
Cc1ccc2oc(-c3cccc(NC(=O)c4ccccc4F)c3)nc2c1	-9	-13

(more compounds)
SMILES	NPYLR7 agonist	NPYLR7 agonist max-min
CCC1CN(Cc2cc(CN(C)C)cs2)CCN1C(C)C (centres undefined)	9	-1
COc1ccc(/C=C2\NC(=O)[C@@H]3Cc4ccccc4CN3C2=O)cc1	3	1
Cc1cc(NC(=O)COC(=O)C(C)NS(=O)(=O)c2ccc(Cl)cc2)no1 (centres undefined)	-3	-8
COc1ccccc1NC(=O)c1c(NC(=O)c2ccco2)sc2c1CCC(C)C2 (centres undefined)	1	-3
Cc1ccccc1S(=O)(=O)N1CCC(Cc2ccc(-n3cccc3)cc2)CC1	10	14
COc1ccc(Cl)c2sc(N(CC3CCCO3)C(=O)c3cc(C)no3)nc12 (centres undefined)	-1	6
CCCC1C=CCN1Cc1ccc(C(=O)Nc2c(C)cc(=O)[nH]c2C)cc1 (centres undefined)	2	1
Cc1ccc(N2CCN(C(=O)COc3ccc(Cl)cc3)C(C)C2=O)cc1F (centres undefined)	17	25
Cc1ccc(-c2cc(C(=O)NN=Cc3ccc(N(C)C)cc3)n[nH]2)s1	-1	-4

One compound at a time, from the list above:
Record of Cc1cc(NC(=O)COC(=O)C(C)NS(=O)(=O)c2ccc(Cl)cc2)no1 (centres undefined) → NPYLR7 agonist = -3; NPYLR7 agonist max-min = -8
Record of Cc1ccc(-c2cc(C(=O)NN=Cc3ccc(N(C)C)cc3)n[nH]2)s1 → NPYLR7 agonist = -1; NPYLR7 agonist max-min = -4

Shown comma-delimited: entries from further up
smiles,NPYLR7 agonist,NPYLR7 agonist max-min
CCC1CN(Cc2cc(CN(C)C)cs2)CCN1C(C)C (centres undefined),9,-1
COc1ccc(Cl)c2sc(N(CC3CCCO3)C(=O)c3cc(C)no3)nc12 (centres undefined),-1,6
